Env fusion inh: inhibitors of HIV-1 Env-driven cell-cell fusion, primary screen, HeLa-JRFL effector, CEM21 target cells, luciferase; inhibition, % at 12.3 µM; actives 1.1% (n = 360,000);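 active = mean replicate inhibition score of at least 50 and every replicate individually at or above 50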;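 also: 0% = plate neutral controls and 100% = maraviroc near 300 nM; one replicate is shown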
PABP FP inh: PABP poly(A) RNA binding inhibitors, primary screen, biochemical, fluorescence polarization, uHTS; Polyadenylate-binding protein 1 (Homo sapiens), P11940; inhibition, % at 35 µM; actives 1% (n = 290,000); AID 2014, 2009;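 active = 50% or more with normal probe brightness, or confirmed in later tests; about a fifth of its hits are not listed in these tables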;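 also: calls also rest on retests at 20 µM and on dose response follow-up; controls were probe without protein and protein plus probe with vehicle; some compounds called inactive have numbers as strong as hits; many hits fall short of the cut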
Target sequence (P11940 whole entry, looked up): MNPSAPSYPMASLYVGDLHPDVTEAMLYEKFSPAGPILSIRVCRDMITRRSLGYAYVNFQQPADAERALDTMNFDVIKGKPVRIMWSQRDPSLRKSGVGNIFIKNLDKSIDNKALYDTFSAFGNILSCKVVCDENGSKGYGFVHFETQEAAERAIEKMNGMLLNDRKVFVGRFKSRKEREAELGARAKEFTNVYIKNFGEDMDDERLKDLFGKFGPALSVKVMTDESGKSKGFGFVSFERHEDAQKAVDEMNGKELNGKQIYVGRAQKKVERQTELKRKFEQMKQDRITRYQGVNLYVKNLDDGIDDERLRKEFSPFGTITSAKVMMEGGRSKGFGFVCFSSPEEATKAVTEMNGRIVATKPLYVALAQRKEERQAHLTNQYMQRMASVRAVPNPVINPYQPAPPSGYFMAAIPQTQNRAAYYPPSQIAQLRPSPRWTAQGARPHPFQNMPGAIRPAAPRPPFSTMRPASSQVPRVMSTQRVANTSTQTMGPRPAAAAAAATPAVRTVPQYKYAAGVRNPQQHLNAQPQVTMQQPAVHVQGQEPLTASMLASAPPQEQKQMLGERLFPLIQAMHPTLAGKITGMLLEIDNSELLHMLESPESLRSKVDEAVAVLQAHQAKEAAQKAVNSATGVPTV
eIF4H FP inh: human eIF4H binding inhibitors, primary screen, translation initiation inhibitor project, biochemical, uHTS, fluorescence polarization | AID 2012, 2009 | eIF4H fluorescence polarization binding assay | actives 0.94% (n = 290,000) | Eukaryotic translation initiation factor 4H (Homo sapiens), Q15056 | inhibition, % at 35 µM;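 active = 50% or more with normal probe brightness, or confirmed in later tests; about a fifth of its hits are not listed in these tables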;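 also: calls also rest on retests at 20 µM and on dose response follow-up; 0% = protein and probe with vehicle and 100% = probe without protein; strong numbers were not always called active; many hits fall short of the cut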
MT1-MMP act inh: blockers of MT1-MMP proenzyme processing, primary screen, HT1080 RFP-PRO-GFP cells, GFP/RFP fluorescence. Matrix metalloproteinase-14 (Homo sapiens), P50281. GFP/RFP ratio fluorescence, overnight; percent of plate control window, DMSO zero. GFP/RFP ratio change, % at 20 µM. actives 0.061% (n = 360,000);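 active = GFP/RFP ratio change of at least 30% with cell ATP level not reduced by more than half and red fluorescence within 50% of control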; also: strong numbers were not always called active
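Test system: HT1080 RFP-PRO-GFP cells; Benchmarks: DMSO and RFP-L50D-GFP cell wells; Timing: cells overnight before dosing, compound overnight, 37 °C, 5% CO2; Compound: one 20 µM compound dose with 1% DMSO; Read-out: GFP/RFP fluorescence ratio.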
Yeast UUG start: modulators of yeast start codon fidelity, primary screen, whole organism, S. cerevisiae, single point, plate reader. S. cerevisiae UUG-firefly luciferase reporter, luminescence/redox ratio. activity score, % at 18.7 µM. actives 0.13% (n = 350,000);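 active = replicate mean at a twofold rise or more, about +100% in these data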;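 also: firefly luciferase made from a UUG start codon reports start codon fidelity; reporter light over untreated wells divided by growth signal over untreated wells; some hits fall short of that in this replicate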
CSC inhib: cancer stem cell viability inhibitors, primary screen, luminescence; inhibition, % at 7.5 µM; cancer stem cell-like cells viability; AID 2717, 2010; actives 1.1% (n = 300,000);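 active = mean at 75% or more and at least half the replicates too; tested in HMLE shEcad cells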;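 also: 0% = median of negative and 100% = median of positive control wells; the first replicate is given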
Rce1 inhib: yeast Rce1p protease inhibitors, primary screen, biochemical, fluorescence, cell-free homogeneous | yeast membranes, quenched prenylated peptide cleavage fluorescence | calls only | actives 0.27% (n = 290,000) | CAAX prenyl protease 2 (Saccharomyces cerevisiae (strain ATCC 204508 / S288c)), Q03530 | AID 2563, 2010;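 active = fall in fluorescence gain of 50% or more versus controls, with final raw signal at or below 3038400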;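 also: plate controls were neutral control wells for no effect and wells lacking membranes for full effect; tested at 10 µM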
MT1-MMP act inh RFP: recorded beside MT1-MMP act inh, whose call it bears; RFP signal change, %; measured here: RFP expression control read;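 0 = vehicle wells; hits needed this value within 50% of zero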
* marks the source's active call; other numbers are inactive results; i = inactive; & = joins results of further samples.

SMILES | Env fusion inh | PABP FP inh | eIF4H FP inh | MT1-MMP act inh | MT1-MMP act inh RFP | Yeast UUG start | CSC inhib | Rce1 inhib
CC[C@@H]1C(=O)OC[C@@H]1Cc1cncn1C | -11&9 | 2&7 | -4&3 | 4&6 | 4&4 | 0&-18 | 1&-11 | i

The list is partial (hit frequency here may not be typical).
